BmaI1 = BmaI1 acyl-homoserine lactone synthase inhibition – biochemical, fluorescence intensity, with counterscreen (AID 720554) | BmaI1 enzyme assay, fluorescence intensity; active compounds read high; test concentration not given here; a few actives read low; strong numbers were not always called active | inhibition, % | actives 0.4% (n = 12,000);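 active = both replicates within 2 robust z-scores of the inhibited control and a quiet counterscreen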;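 note: 0% = uninhibited enzyme and 100% = inhibited control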
BmaI1 counterscreen = second read-out of BmaI1, no call of its own (marks repeat the call); inhibition, %; measured here: counterscreen; design of the counterscreen not given here;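 first of two replicates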
* hit, by the source's call.

Compound | BmaI1 | BmaI1 counterscreen
O=C(/C=C/c1ccc(Br)o1)OCC(=O)N1CCN(S(=O)(=O)c2ccc3ccccc3c2)CC1 | 4 | -2
CC(NCCN1C(=O)S/C(=C\c2ccc(C)cc2)C1=O)=C(C#N)C#N | 17 | 12
CN(Cc1ccc(Cl)c(Cl)c1)CN1C(=O)NC2(CCCC2)C1=O | 12 | 10
O=S(=O)(c1cccc(CSc2nnc(-c3cccs3)n2-c2ccccc2)c1)N1CCOCC1 | -2 | 0
CCc1cccc(-n2c(N3CCOCC3)n[nH]c2=S)c1 | 99 | 72
COc1ccccc1C(=O)COC(=O)Cn1nnc2ccccc21 | 10 | 0
CC1CCCC(C)N1/N=C/c1ccc(C#N)cc1 (centres undefined) | 12 | 0
O=C(CSc1nnc(-c2ccc(Cl)cc2)o1)OCC(=O)c1ccccc1 | 8 | 10
N#Cc1cc(C(=O)Nc2ccccc2)c(N)[nH]c1=S | 79 | 41
Cc1ccc(NC(=O)c2cccc(S(C)(=O)=O)c2)cc1 | 22 | 8

Five entries out of the list, sorted by count of non-hydrogen atoms, rising:
Compound | BmaI1 | BmaI1 counterscreen
Cc1ccc(NC(=O)c2cccc(S(C)(=O)=O)c2)cc1 | 22 | 8
CN(Cc1ccc(Cl)c(Cl)c1)CN1C(=O)NC2(CCCC2)C1=O | 12 | 10
COc1ccccc1C(=O)COC(=O)Cn1nnc2ccccc21 | 10 | 0
O=C(CSc1nnc(-c2ccc(Cl)cc2)o1)OCC(=O)c1ccccc1 | 8 | 10
O=S(=O)(c1cccc(CSc2nnc(-c3cccs3)n2-c2ccccc2)c1)N1CCOCC1 | -2 | 0

Additional results.
Compound | BmaI1 | BmaI1 counterscreen
Cc1cc(C)n(-c2ccc(C(=O)OCC(=O)NCC3CCCO3)cc2)n1 (centres undefined) | 8 | 9
Cc1ccc2c(CSc3cccc[n+]3[O-])cc(=O)oc2c1 | 14 | 11
Cc1cc(C(=O)N/N=C2\C(=O)c3cccc4cccc2c34)c(C)o1 | 12 | 0
O=C(O)CSc1nn(-c2ccccc2)c(=S)s1 | 14 | 6
Cc1csc(NC(=O)NCC2CCCC(CNC(=O)Nc3nc(C)cs3)C2)n1 (centres undefined) | 3 | 6
CC(OC(=O)c1cccnc1SC(C)C(N)=O)C(N)=O (centres undefined) | 18 | 6
COC(=O)c1ccc(CN2CCC(c3nc4ccccc4s3)CC2)o1 | 16 | 9
C=CCNc1nc(C(=O)OCc2cccc(S(=O)(=O)N(C)C)c2)cs1 | 8 | 0
CC(Sc1nncn1-c1ccccc1)C(N)=O (centres undefined) | 14 | 10
COC(=O)COc1cc(NO)ccc1N=O | 88* | 4.5*
C=CCn1c(C)cc(C(=O)COC(=O)c2ccc3c(c2)NC(=O)CS3)c1C | 24 | 9
CCn1c(=O)/c(=C\c2ccc(Cl)cc2)s/c1=C(/C#N)c1nc2ccccc2n1C | 12 | 4
Cc1ccc(Cn2ccsc2=NC(=O)COC(=O)c2ccc(-n3cnnn3)cc2)cc1 | 2 | 0
CCOc1ncccc1C(=O)N1CCN(S(=O)(=O)c2ccc(Br)cc2Cl)CC1 | 4 | 6
O=C1Cc2cc(C(=O)CSc3ccc4c(c3)OCCCO4)ccc2N1 | 34 | -4
Cc1cc(NC(=O)COC(=O)COc2ccc3c(c2)CCC3)no1 | -2 | 2
CC(C)Cn1c(SCCc2ccccc2)nnc1-c1cccc(S(=O)(=O)N2CCOCC2)c1 | 21 | 6
N#CCc1nnc(N2CCOCC2)n1-c1ccccc1 | 84 | 56
Cc1noc(C)c1COc1ccc(C(=O)NC2=NCCS2)cc1 | 24 | 16
COC(=O)C1=C(C)NC(C)=C(C(=O)O[C@@H]2CCCN(Cc3ccccc3)C2)[C@@H]1c1cccc([N+](=O)[O-])c1 | 0 | 4
Cc1c(C(=S)NC(=O)C2CC2)c(=O)n(-c2ccccc2)n1C | 12 | 12
O=C1CCCN1C(=O)CSc1nc2sc3c(c2c(=O)n1Cc1ccco1)CCCC3 | 27 | 17
CC(C)c1ccc2[nH]c(O)c(N=NC(=O)c3nn(C)c(=O)c4ccccc34)c2c1 | 18 | -12
CN1CC[C@]2(c3cccc(O)c3)Cc3nc4ccccc4cc3C[C@H]2C1 | -2 | 6
Cc1ccc(CN(C)C(=O)c2ccc(S(=O)(=O)N3CCCCC3)cc2)o1 | 11 | 0
CCn1c(SCC(=O)OCC(=O)Nc2ccc3ccccc3c2)nnc1-c1cccs1 | 11 | 5
N#CCN(C(=O)CSc1nc2sc3c(c2c(=O)n1Cc1ccco1)CCCC3)c1ccccc1 | 12 | 8
CCc1ccc(C#N)cc1 | 12 | 16
CC1CCC(C(C)C)C(OC(=O)COC(=O)c2ccncc2)C1 (centres undefined) | 7 | 3
CC(C)(C)C(=O)CSc1nnc(-c2ccncc2)n1-c1ccccc1 | 8 | 5
NC(=O)COC(=O)c1ccc2c(c1)OCO2 | 17 | 16
Cc1cc(NC(=O)[C@H](C)NC(=O)c2ccco2)ccc1Br | 7 | -2
N#C/C(=C(/O)CSc1nnc(Cc2cccs2)n1C1CCCCC1)c1nc2ccccc2[nH]1 | 19 | 10
O=C(CN1C(=O)C2CC=CCC2C1=O)NCc1cccs1 (centres undefined) | 4 | 4
CCN(CC)c1nc2ccccc2n(Cc2cccc(OC)c2)c1=O | 22 | 12
O=C(Cc1ccc2c(c1)OCCO2)N1CCc2ccccc21 | -9 | -5
CC(Sc1nnc(-c2ccco2)n1Cc1ccccc1)c1nc2ccccc2c(=O)[nH]1 (centres undefined) | -12 | 1
Cc1nc(Cc2nnc(SC(C)c3nc4scc(-c5ccccc5)c4c(=O)[nH]3)o2)cs1 (centres undefined) | 8 | 4
O=C(c1ccc2c(c1)S(=O)(=O)N=C1CCCCCN12)N1CCN(S(=O)(=O)c2ccc(F)c(F)c2)CC1 | 12 | 5
CC1=CC2CC1C1C(=O)N(C(C)C(=O)N3c4ccccc4CC3C)C(=O)C21 (centres undefined) | 7 | -4
COC(=O)c1ccc(CSc2nncn2C)cc1 | 1 | 0
COc1cc(Cc2cnc(N)nc2N)cc(OC)c1OC | -6 | 8
Cc1cc(C(=O)COc2ccccc2Cl)c(C)n1Cc1cccs1 | -11 | -1
C[C@@H]1C[C@H]2[C@@H]3CCC4=CC(=O)C=C[C@]4(C)[C@@]3(F)[C@@H](O)C[C@]2(C)[C@H]1C(=O)CO | 59 | 10
O=C(COC(=O)c1ccc(Cl)s1)c1ccc2[nH]c(=O)[nH]c2c1 | 18 | 13
c1ccn2c(SCc3nnc(-c4cc5c(s4)CCCC5)o3)nnc2c1 | 2 | 8
Cc1cc(C(=O)C(C)OC(=O)c2cccc(-n3cnnn3)c2)c(C)n1-c1ccccc1 (centres undefined) | 3 | 1
N#Cc1ccccc1OCc1nc2ccccc2o1 | 20 | 18
CCCCCCCCCOc1ccc2[nH]cc(CCN)c2c1 | 8 | 14
Cc1cc(C)n2nc(SCC(=O)N(C)c3c(N)n(Cc4ccccc4)c(=O)[nH]c3=O)nc2n1 | 16 | 8

(further entries)
Structure | BmaI1 | BmaI1 counterscreen
O=c1[nH]cc(-c2nc3ccccc3s2)c(=O)[nH]1 | 10 | -2
O=C(/C=C/c1nc2ccccc2s1)OCC(=O)N1CCCC1=O | 10 | -12
COc1ccc2c(CC(=O)OCc3c(C)noc3C)coc2c1 | 6 | 9
CC(C)CCNC(=O)C12CC3CC(CC(O)(C3)C1)C2 | 11 | 12
CN(C)S(=O)(=O)c1cccc(-c2nnc3n2N=C(c2cccs2)CS3)c1 | 88* | -1.0*
CCN=c1scc(CC(=O)OCC)n1-c1c(C)cc(C)cc1C | 3 | 8
CCC(C)c1ccc(C(=O)COc2ccc(-c3nnco3)cc2)cc1 (centres undefined) | 0 | -5
Nc1c(-c2ccccc2)nc2sccn12 | 76 | 9
CCn1c(-c2ccc3c(c2)OCCO3)cnc1SCC(=O)c1ccc2c(c1)CCN2S(C)(=O)=O | 18 | 12
O=c1[nH]c(CNCc2cccs2)nc2ccsc12 | 4 | 1
COc1ccc2c(Cl)c(-c3nnc4n3CCC4)sc2c1 | 6 | -4
CCOC(=O)/C=C1\SCC(=O)N1CCCCN1C(=O)c2ccccc2C1=O | 6 | 2
N#Cc1ccc(COC(=O)C2CCCN2C2=NS(=O)(=O)c3ccccc32)cc1 (centres undefined) | 16 | 4
CC(C)(Oc1ccc(Cl)cc1)C(=O)OCC(=O)N1CCCC1 | 6 | -2
C=CCn1c(COc2ccc(CC)cc2)nnc1SCC(=O)/C(C#N)=C(\C)N | 19 | 7
CNC(=O)COC(=O)C1(c2ccc(Cl)cc2)CCC1 | 0 | -1
Cc1cc(OC(=O)c2ccccc2Cl)n(CCC#N)n1 | 37 | 8
COC(=O)c1c(Cn2cc(Br)ccc2=O)nc2ccccc2c1C | 10 | 10
Cc1ccc(S(=O)(=O)NC(=O)c2cc(C)n(-c3ccccc3)c2C)cc1 | 5 | 1
CN=C(Nc1ccnn1C1CCCCC1)c1ccccc1 | 4 | -1
O=C(O)C1CCN(c2nccs2)CC1 | 9 | -2
Cc1ccc(CN(C)C(=O)C2CCCCC2)o1 | 13 | 15
Brc1cccc(OCCOc2cccc(-n3cnnn3)c2)c1 | 6 | 5
COc1ccccc1C(=O)Oc1ccc2ccc(=O)oc2c1 | -30 | -2
CCn1c(-c2ccco2)nn(CN(C)Cc2cccc(Cl)c2)c1=S | 76 | 58
COc1ccnc(CS(=O)c2nc3cc(OC(F)F)ccc3[nH]2)c1OC (centres undefined) | 2 | -2
Cc1c2c(c(C#N)c3nc4ccccc4n13)CCCC2 | 0 | -2
COC(=O)c1ccc(COC(=O)c2n[nH]c3ccccc23)o1 | 12 | 6
CCCOC(=O)c1ccc(NC(=O)CO/N=C/c2nc3cc(Cl)ccc3o2)cc1 | 40 | 20
COc1cc(C(=O)OCCCCN2C(=O)c3ccccc3C2=O)cc(OC)c1OC | 4 | 9
Cc1ccc(C2=NN(C(=O)CSc3ccc4c(c3)OCCO4)C(c3ccco3)C2)cc1 (centres undefined) | 8 | 0
Cc1ccc2c(CN3CCN(S(=O)(=O)c4ccccc4)CC3)cc(=O)oc2c1C | -10 | -10
CCOC(=O)N1CCN(C(=O)COC(=O)C2=C(Nc3ccccc3)OCC2=O)CC1 | 8 | 14
Cn1cnnc1Sc1nc2ccccc2nc1Cl | 31 | 24
COc1ccc(/C=N/NC(C)(C)C)cc1O | 100 | 94
CC(Sc1nncn1C)C(=O)c1ccc(C(C)(C)C)cc1 (centres undefined) | 8 | 0
CC(C)(C)c1cc(NS(=O)(=O)c2ccc3c(c2)OCCO3)on1 | 0 | 2
Cc1nn(-c2ccccc2)c(C)c1/C=C/C(=O)OCC(=O)Nc1c(C#N)oc2ccccc12 | 10 | 1
CC1(C)CC2CC(C)(CN2C(=O)COC(=O)C2CCN(c3ccc(C(F)(F)F)cn3)CC2)C1 (centres undefined) | 24 | 8
O=C(Nc1ccc(S(=O)(=O)NC2=NCCCCC2)cc1)c1cccs1 | 10 | 5
CN(C)C(=O)Cn1c(=O)cnc2ccccc21 | 8 | 12
COC(=O)c1ccc(NC(=O)CSC2=Nc3ccccc3C3CC=NN23)cc1 (centres undefined) | -6 | -10
CN(C(=O)COC(=O)c1ccccc1NS(C)(=O)=O)C1(C#N)CCCCC1 | 0 | -1
CCCC1O[C@@H]2C[C@H]3[C@@H]4CCC5=CC(=O)C=C[C@]5(C)[C@H]4[C@@H](O)C[C@]3(C)[C@]2(C(=O)CO)O1 (some centres undefined) | 2 | 4
COC(=O)c1c(N)n(Cc2ccco2)c2nc3ccccc3nc12 | 14 | 0
CN(C)c1ccc(P(=O)(N(C)C)N(C)C)cc1 | 5 | -2
CC(=O)NCC(=O)OCc1ccc(COC(=O)CNC(C)=O)cc1 | -13 | -8
COc1ccc(C)cc1-n1nnnc1SCC(=O)N1CCC(C(=O)Nc2nccs2)CC1 | 6 | 7
CCN(CC(=O)Nc1ccc(S(=O)(=O)N2CCCC2)cc1)CC(=O)Nc1cccc(OC)c1 | 8 | 10
Cc1ccc(C(C)C)c(OCCCCN(C)C)c1 | 9 | 13

Remaining list, next part.
Structure | BmaI1 | BmaI1 counterscreen
COc1ccccc1NC(=O)Cc1noc(COC(=O)c2ccc(Br)o2)n1 | 10 | 10
CCCc1nc2c(C)cc(-c3nc4ccccc4n3C)cc2n1Cc1ccc(-c2ccccc2C(=O)O)cc1 | 10 | 2
O=C(N/N=C/c1ccc(N2CCOCC2)cc1)C1CC1 | -8 | -8
Cc1cc(C)c(C#N)c(=S)[nH]1 | 90 | 76
COc1ccc(CCN2COc3ccc4c5c(oc4c3C2)C(=O)c2ccccc2C5=O)cc1OC | 16 | 6
CCOC(=O)c1[nH]c2c(c1C)C(=O)CCC2 | 20 | 6
O=C(CSc1nnc(NC2CC2)s1)c1ccc2c(c1)OCO2 | 31 | 0
COc1cccc(C(=O)OCc2ccccc2C(F)(F)F)c1O | 20 | 12
Cc1ccc(C)c(NC(=O)c2cccc(S(=O)(=O)N3CCCC3)c2)c1 | -3 | 6
Cc1n[nH]c(C)c1S(=O)(=O)Nc1ccc(Br)cc1F | 20 | 10
Cn1c(=O)cc(N)n(Cc2ccccc2)c1=O | 4 | -2
N#Cc1ccc(Cn2cc(Br)ccc2=O)cc1 | 12 | 8
CCN(CC)S(=O)(=O)c1ccc(NCCc2ccccn2)nc1 | 9 | -2
CC(C)C(C)(C#N)NC(=O)CSc1nnc2ccccn12 (centres undefined) | 10 | 9
Cc1ccc(S(=O)(=O)N(C)c2nc3ccccc3nc2N2CCN(Cc3ccccc3)CC2)cc1 | 7 | 3
C=CCn1c(C2CCS(=O)(=O)C2)n[nH]c1=S (centres undefined) | 62 | 40
COCc1c(C(=O)OC2CCOC2=O)oc2ccccc12 (centres undefined) | 6 | -2
CN(C(=O)COc1ncnc2sccc12)c1ccccc1 | 10 | 17
c1cncc(-c2nc(NCCSCc3ccco3)c3ccccc3n2)c1 | 49 | 10
Cc1cc(C)c(C(N)=O)c(SCC(=O)Nc2c(C)n(C)n(-c3ccccc3)c2=O)n1 | 45 | 8
O=C(Nc1ccc2c(c1)OCO2)c1c(Cl)nc2ccccn12 | 8 | -5
Cc1cc(C)nc(SCc2ccccc2C(=O)N2CCN(C(=O)c3ccco3)CC2)n1 | 17 | 3
Cc1cccc(NC(=O)CSc2cccc[n+]2[O-])c1C | 15 | 4
CN(C(=O)CN1C(=O)c2ccccc2C1=O)c1ccccc1 | -8 | -8
O=C(CSc1nc2cc(Cl)ccc2s1)Nc1ccnn1C1CCCC1 | 2 | -6

The list is partial, so the mix of outcomes need not match the whole.
